# From PubChem BioAssay
# LANA-H2B inh = blocks KSHV LANA binding to histone H2A/H2B; Q9QR71; inhibition, % (no concentration beside the values); cell-free LANA-H2A/H2B peptide, fluorescence polarization; actives 0.6% (n = 320,000); in the data active means inhibition mostly above about 10%, no sharp cut-off; inactive means mostly below about 6.7%;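 further: stock transfer was 7.5 nL into about 10 µL; 0% = median of vehicle wells and 100% = median of positive control wells; one replicate is shown; the record names a cut of 25% in any replicate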
# Calb FLC = affects C. albicans growth with fluconazole; growth inhibition, % (no concentration beside the values); C. albicans CaCi-2 (fluconazole-resistant clinical isolate) + fluconazole, Alamar Blue growth, 48 h; actives 0.57% (n = 300,000); AID 1979;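 active means most replicates above 75%; inconclusive means exactly half above 75%; inactive means most below 75%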;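 further: all wells also contain fluconazole at 8 µg/ml as a sub-toxic cotreatment; 0% = median of DMSO wells and 100% = median of geldanamycin control wells; wells of about 8 µL received 7.5 nL stock; the first replicate is given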
# RanGTP-Impb inh = disruptors of Ran-importin-beta complex formation – biochemical, FRET, CFP-Ran, YFP-importin-beta, homogeneous, primary screen; cell-free CFP-Ran/YFP-importin-beta FRET ratio; AID 2216; actives 1.1% (n = 300,000); inhibition, % (test concentration not listed);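 active means most replicates above 15%; inconclusive means exactly half above 15%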;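 further: 0% = DMSO wells and 100% = Ran loaded with GDP instead of GTP; wells of about 40 µL received 100 nL stock; the first replicate is given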
# Beta2AR agonist = agonists of human beta-2 adrenergic receptor inducing internalization | Am2.2-beta2AR cells, FAP receptor internalization, flow cytometry; reference of the scale not given here | response, % (no concentration beside the values) | actives 0.43% (n = 340,000) | AID 504454;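 active means response above a set limit, near 3 SD of response in nonfluorescent compounds, cut at about 42% in these data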;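 further: stock transfer was 100 nL into about 11 µL; a reference agonist was the positive control; negative values mostly stem from fluorescent compounds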
# Target sequence (P07550 whole entry, looked up): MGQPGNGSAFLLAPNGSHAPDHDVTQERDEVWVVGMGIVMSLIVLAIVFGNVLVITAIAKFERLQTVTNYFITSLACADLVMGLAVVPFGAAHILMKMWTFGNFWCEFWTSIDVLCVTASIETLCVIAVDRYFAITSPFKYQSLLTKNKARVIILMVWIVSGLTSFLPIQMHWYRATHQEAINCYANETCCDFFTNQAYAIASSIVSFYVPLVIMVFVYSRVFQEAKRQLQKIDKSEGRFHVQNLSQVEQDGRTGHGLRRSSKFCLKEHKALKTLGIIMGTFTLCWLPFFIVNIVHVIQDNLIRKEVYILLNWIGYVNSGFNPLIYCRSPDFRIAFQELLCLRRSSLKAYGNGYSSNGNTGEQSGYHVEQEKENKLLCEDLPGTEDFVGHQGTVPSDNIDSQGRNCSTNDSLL
# ALR inh = human ALR oxidase inhibition via reduced H2O2. inhibition, % (concentration not given with the values). actives 3.8% (n = 290,000). purified ALR, DTT oxidation, H2O2 HRP-luminol luminescence;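 active means mean and each replicate at 75% or more; inconclusive means only one of the two met; inactive means neither met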;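 further: stock transfer was 7.5 nL into about 7.5 µL; 0% = neutral wells and 100% = wells with inactivated enzyme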
# Target sequence (P55789 whole entry, looked up): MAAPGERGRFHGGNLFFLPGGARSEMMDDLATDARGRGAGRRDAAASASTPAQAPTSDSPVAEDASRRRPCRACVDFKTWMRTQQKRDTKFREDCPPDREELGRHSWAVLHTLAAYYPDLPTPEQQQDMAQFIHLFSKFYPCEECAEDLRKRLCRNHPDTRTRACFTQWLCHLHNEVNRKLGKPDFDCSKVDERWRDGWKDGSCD
# HNF4A DNA FP = change in binding of human HNF4 alpha to DNA. actives 0.3% (n = 360,000). HNF4a-FITC DNA binding, fluorescence polarization, 1 h. activity change, % at 10 µM. P41235; in the data active means activity change above about 30%, passing the limit was not always enough;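 further: controls were the assay level and a saturating level of protein; the project sought stronger binding though the title names inhibitors; some compounds called inactive have numbers as strong as hits; positive values seem to mean higher polarization but the record does not say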
# Vif TR-FRET = inhibitors of Vif binding to APOBEC3G peptide, primary screen, biochemical, TR-FRET, GST-Vif 1-94, biotin-A3G peptide, dose response retest (AID 1117319) | TR-FRET GST-Vif / biotin-A3G peptide binding; higher % means a stronger effect; test concentration not given here; strong numbers were not always called active | one-dose inhibition, %; IC50 in µM for titrated hits | actives 0.57% (n = 260,000);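 active means above the screen mean plus three standard deviations and confirmed in dose response; inconclusive means results disagree or hit not tested in dose response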;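 further: Vif residues 1-94 fused to GST binding biotinylated APOBEC3G peptide 110-148; 0% = full assay without inhibitor and 100% = GST in place of GST-Vif; retest series ran down from 100 µM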
# * = called active by the depositor; ? = inconclusive; . = not tested or not shown; & = joins results of further samples.
SMILES,LANA-H2B inh,Calb FLC,RanGTP-Impb inh,Beta2AR agonist,ALR inh,HNF4A DNA FP,Vif TR-FRET
CN(CCOc1ccccc1)CCOc1ccccc1,0.1,-3,-1.2,-3,0,-2.1,-3%
COc1ccccc1C1c2[nH]c3ccccc3c2C[C@H]2C(=O)N(C3CCN(Cc4ccccc4)CC3)CC(=O)N12 (stereo not given in full),-0.8,-3,5.3,24,-11,1.7,4%
CCn1cc(C2=NCC(C)O2)c2ccccc21 (stereo not given),1.3,-10,-5.5,-5,6,4.4,3%
CCCCOC(=O)c1ccc(NC(=O)COC(=O)CSc2nc(C)cc(C)n2)cc1,0.3,29,-2.4,18,-4,2.6,-2%
Cc1cccc(NC(=O)/C(C#N)=C\c2ccc(C(=O)O)cc2)c1,6.6,6,3.9,7,15,-0.3,-3%
CCCc1c(C)[nH]c2nc3ccccc3n2c1=O,-1.1,29,0.5,-14,6,-2.5,2%
COc1ccc(C(=O)N2CCCN(C)CC2)c(OC)c1,-4.9,3,1.5,0,-2,-1.3,.
Cc1oc(-c2ccccc2Cl)nc1CN1CCCCC1c1cccnc1 (stereo not given),2.8,12,-8.3,-5,3,2.4,3%
COc1cccc(NC(=O)CN(C)C(=O)CSc2nc(C)cc(C)n2)c1,0.7,.,.,1,2,0.4,3%
CCc1ccc(CNC(=O)CCn2nc(C)c3c(C)n(-c4ccccc4)nc3c2=O)cc1,2.1,2,-1.8,-3,0,0.3,.
NC(=O)C1(N2CCCCC2)CCN(C(=S)Nc2ccccc2)CC1,1.9,0,?,-5,0,1.3,.
C#CCOCCOCCOCCNc1nc(N2CCN(C(=O)CCCCCCCCCCNC(=O)Cn3cc(C[C@@H](C)O)nn3)CC2)nc(N2CCN(C(=O)CCCCCCCCCCNC(=O)[C@H](CCCCN)n3cc(C[C@@H](C)CC)nn3)CC2)n1,-17,.,.,40,-17,140,.
COC(=O)c1[nH]c2cccc(Cl)c2c1NC(=O)CN(C)C1CCCCC1,-1.8,.,.,-2,.,3.1,1%
CC1CCCCN1C(=O)CSc1nnc(-c2c[nH]c3ccccc23)o1 (stereo not given),11,7,2.7,0,-1,1.9,12%
O=C(NN=C1CCCC1)c1ccccc1[N+](=O)[O-],1.3,24,1.7,0,-9,-1.2,-3%

# Complete entries from above.
# `CCCc1c(C)[nH]c2nc3ccccc3n2c1=O` as listed: LANA-H2B inh = -1.1; Calb FLC = 29; RanGTP-Impb inh = 0.5; Beta2AR agonist = -14; ALR inh = 6; HNF4A DNA FP = -2.5; Vif TR-FRET = 2%
# `CCn1cc(C2=NCC(C)O2)c2ccccc21` (stereo not given) as listed: LANA-H2B inh = 1.3; Calb FLC = -10; RanGTP-Impb inh = -5.5; Beta2AR agonist = -5; ALR inh = 6; HNF4A DNA FP = 4.4; Vif TR-FRET = 3%

# (listing goes on)
SMILES,LANA-H2B inh,Calb FLC,RanGTP-Impb inh,Beta2AR agonist,ALR inh,HNF4A DNA FP,Vif TR-FRET
O=C(CN(C(=O)CCC(=O)Nc1nccs1)c1cccc(F)c1)NCc1ccc(F)cc1,2.1,-15,?,0,.,-0.6,.
CCCNC(=O)Cn1nc(C(F)(F)F)c2c1CCCC2,1.2,14,-2.1,-2,-3,0.9,-1%
O=C(Nc1ccccc1Cl)c1cc(S(=O)(=O)N2CCCC(C(=O)O)C2)ccc1F (stereo not given),1.2,1,-3.8,-11,.,2.7,-2%&5%
Cc1ccc(S(=O)(=O)Nc2ccccc2C(=O)N2CCCCC2)cc1,2.0,5,7.5,-2,-10,1.7,-9%
O=C(CCCN1C(=O)c2ccccc2C1=O)NCCN1C(=O)S/C(=C\c2cccs2)C1=O,-2.1,3,-0.8,-20,-9,-5.4,.
CC(=O)NC(Cc1cc(C)ccc1C)C(=O)N1CCN(C(=O)c2ccccc2Br)CC1 (stereo not given),-1.0,1,-4.1,-5,-9,1.9,5%
C=CCn1c(SCC(=O)Nc2ccccc2OC)nnc1-c1ccco1,.,36,?,.,.,.,1%
CN(C)CCNC(=O)c1c(NC(=O)c2ccccc2)sc2c1CCCC2,-2.9,2,3.7,-2,32,4.2,.
CC(=O)N1N=C(c2cccc(Cl)c2)OC1c1cccc([N+](=O)[O-])c1 (stereo not given),5.5,-5,-4.9,4,15,5.7,.
Cc1ccc(C)c(-n2nnnc2SCC(=O)Nc2c(C)n(C)n(-c3ccccc3)c2=O)c1,-4.7,8,1.1,5,2,2.7,25%
CCOC(=O)c1cnn(-c2cc(C(C)(C)C)nc3c(-c4ccccc4)c(C)nn23)c1N,0.5,-1,1.7,12,-4,0.3,0%
CC(=O)c1ccc(S(=O)(=O)N2CCN(C)CC2)cc1,4.0,-5,1.4,4,-20,0.9,-1%
N#CC1=C(SCC(=O)c2cc3ccccc3oc2=O)NC(=O)C(C#N)C12CCCC2 (stereo not given),1.3,-5,-70,-14,27,9.6,-5%
COc1ccccc1NC(=O)Nc1ccnn1Cc1cccs1,1.2,-5,1.4,1,-14,2.3,2%
COc1cc(CNCc2ccccn2)ccc1OCc1cccc(Cl)c1,3.4,-29,-2.1,4,0,-0.8,0%
CC(C)CN(c1ccccc1)S(=O)(=O)c1nnc(NC(=O)C(C)C)s1,3.1,-4,2.9,9,2,-4.6,5%
CCN(CC)c1ccc(C2C(C(C)=O)C(=O)CC(C)(O)C2C(C)=O)cc1 (stereo not given),2.1,-4,5.4,-7,99*,2.0,7%
O=S1(=O)[C@H]2C[C@@H]3C=C[C@]2(CN1Cc1ccc(C(F)(F)F)cc1)O3,3.2,-6,8.0,-12,14,-1.2,1%
C[C@H](CO)N1C[C@H](C)[C@H](CN(C)Cc2ccncc2)Oc2ccc(NC(=O)Nc3ccc(C(F)(F)F)cc3)cc2CC1=O,-1.3,.,.,-5,0,0.6,.
CCOC(=O)C(Cc1ccccc1)NC(=O)CNC(C)=O (stereo not given),1.9,9,?,-5,-10,-5.2,2%
Cc1c(NC(=O)c2ccc(S(=O)(=O)N3CCOCC3)cc2)c(=O)n(-c2ccccc2)n1C,4.6,-2,?,7,-4,0.0,-9%
CCOc1cc(/C=N/NC(=O)c2cccc(S(=O)(=O)N3CCCC3)c2)ccc1OCC(=O)N(C)C,-2.7,1,2.9,-11,-9,1.0,.
CCc1ccccc1NC(=O)C1CCCC1,-0.7,8,-0.8,-4,0,1.8,.
C=CCN1CC(c2nc3ccccc3n2CCOc2ccccc2)CC1=O (stereo not given),4.1,9,-1.5,-8,-13,-2.5,?
CCCCN=C1SC(C(=O)Nc2sc3c(c2C(=O)OC)CCC3)C(N)=C1C(=O)N1CCOCC1 (stereo not given),0.7,-13,-5.5,10,-2,6.9,.
Cc1cc(C)n(CC(=O)N2c3ccccc3Sc3ccccc32)n1,-2.7,2,3.3,0,30,-0.1,-9%
O=S(=O)(Nc1ccccc1N1CCOCC1)c1ccc(F)c(Cl)c1,-1.7,-10,0.4,-1,26,-6.0,.
COc1ccc(CCN(C)C(=O)CSc2nc3ccccc3c(=O)n2CC2CCCO2)cc1OC (stereo not given),.,.,.,4,.,2.5,3%
CCN1/C(=C2\C(=O)N(c3ccccc3)N=C2C)C=Cc2cc(C)ccc21,1.6,-4,0.7,11,9,3.2,-3%
Cc1onc(-c2ccccc2Cl)c1C(=O)N1CCCCC1C(=O)O (stereo not given),0.0,-3,3.2,-3,68,2.7,3%
COc1ccc(NC(=O)c2ccc(-c3ccccc3Cl)o2)cc1,-4.8,3,-2.6,-1,-14,-0.1,-4%
CC(CN1CCCCC1)OC(=O)c1ccccc1F (stereo not given),1.0,0,0.9,5,2,-0.4,.
CCCCCn1c(CN2CCCCC2C)nc2c1c(=O)n(C)c(=O)n2C (stereo not given),0.6,-5,-1.6,-13,-3,2.1,?
CCCC(=O)N(CCN1CCOCC1)c1nc2c(F)cc(F)cc2s1,2.8,-1,25,-11,-5,-0.4,.
COC(=O)CN1C(=O)S/C(=C/c2cc(C)n(C)c2C)C1=O,1.0,-29,-1.1,0,.,12,7%
CN(C)S(=O)(=O)c1cccc(-c2nnc(SCc3ccc4c(c3)OCCO4)o2)c1,5.1,6,8.6,40,-3,0.0,14%
CCOC(=O)C1=C(CC)Nc2ccccc2N=C1NC(=O)c1cc(S(=O)(=O)N2CCOCC2)ccc1C,-0.7,.,.,-2,.,5.4,.
Cc1noc(C)c1S(=O)(=O)N1CCCC(C(=O)Nc2cccnc2)C1 (stereo not given),7.0,-5,1.2,5,-5,0.6,-8%
CCOC(=O)C1=C(COC(=O)c2ncc(Cl)c(Cl)c2Cl)NC(=O)NC1C (stereo not given),8.5,3,2.7,15,0,-2.0,0%
O=C(NC(=S)Nc1ccccc1Br)C1CC1,3.5,-4,-1.2,-4,0,1.4,3%
Cc1cc(NC(=O)c2ccccc2)ncc1NC(=O)c1cccs1,5.0,-19,4.5,-4,0,5.0,23%
CC(=O)Nc1ccc(N2C(=O)CSC2c2ccccc2)cc1 (stereo not given),-2.9,0,-1.3,-4,99*,-3.0,-4%
O=C(CN1C(=O)NC2(CCCCC2)C1=O)N1CCN(S(=O)(=O)c2ccc(F)cc2)CC1,-3.0,0,-1.0,1,1,4.0,-7%
O=C(Nc1ccc(Cl)cc1)N1CCOC12CCC1(CC2)OCCO1,1.1,-9,-1.5,4,2,4.7,6%
COCCN(C(=O)CSc1nc2ccccc2c(=O)n1CCOC)c1c(N)n(Cc2ccccc2)c(=O)[nH]c1=O,-0.1,7,-2.5,3,-2,-5.1,-8%

# Pulled by structure from above (2):
SMILES,LANA-H2B inh,Calb FLC,RanGTP-Impb inh,Beta2AR agonist,ALR inh,HNF4A DNA FP,Vif TR-FRET
O=C(CN1C(=O)NC2(CCCCC2)C1=O)N1CCN(S(=O)(=O)c2ccc(F)cc2)CC1,-3.0,0,-1.0,1,1,4.0,-7%
Cc1noc(C)c1S(=O)(=O)N1CCCC(C(=O)Nc2cccnc2)C1 (stereo not given),7.0,-5,1.2,5,-5,0.6,-8%

# New compounds follow:
SMILES,LANA-H2B inh,Calb FLC,RanGTP-Impb inh,Beta2AR agonist,ALR inh,HNF4A DNA FP,Vif TR-FRET
Cc1c(C(=O)Nc2ccccc2)sc2nc3n(c(=O)c12)CCCCC3,7.6,6,-2.5,2,.,2.1,-9%
COc1ccc(C2Nc3ccccc3C(=O)N2NS(=O)(=O)c2ccccc2)cc1 (stereo not given),-1.5,4,?,-2,-8,-2.2,-248%
CC(C)CC1NC(=O)N(CC(=O)Nc2ccccc2-c2ccccc2)C1=O (stereo not given),-1.6,-17,-0.1,-7,-11,-1.7,-5%
O=C(CC1NC(=O)NC1=O)Nc1ccccc1 (stereo not given),-4.0,-1,-0.1,-6,-23,-3.6,12%
CCCOc1nc2c(c(=O)n(C)c(=O)n2C)n1CCC,-4.0,-6,-4.4,4,-1,1.4,-6%
CN(C(=O)COC(=O)c1nc(Cl)c(Cl)c(Cl)c1Cl)C1CCS(=O)(=O)C1 (stereo not given),.,20,0.8,6,.,2.0,.
CC(CCc1ccccc1)NC(=O)C(Cc1ccccc1)NS(=O)(=O)c1cccs1 (stereo not given),-3.8,15,-2.3,2,-3,-0.2,-3%
CCc1cccc(NC(=O)CCc2c(C)nn(-c3ccc(N4CCCCC4)nn3)c2C)c1,0.1,-6,4.1,-13,-2,-2.3,.
